Screening results from PubChem BioAssay.
Sa growth 42C: S. aureus growth inhibition at 42 and 30 °C, primary screen, LtaS inhibitor project, RN4220, two temperatures. 0.53% of 170,000 active. OD600, 20 h, 42 °C; hits give low values. relative growth, % (concentration not given with the values);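 active = growth at 42 °C up to 50% and 20 or more points under that at 30 °C, or under 10% at both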;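 note: 300 nL library stock went into each well; scaled to the means of positive and negative controls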
GIV Gai3 FP: inhibitors of GIV peptide binding to Galpha-i3, primary screen, biochemical, fluorescence polarization, FITC-GIV GBA peptide, rat Galphai3 | 0.42% of 210,000 active | 90 min; hits give low values; scaled: aluminum fluoride 0%, vehicle 100% | percent of control (FP), % (no concentration beside the values);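 active = replicate mean at 85% of control or lower, very high polarization wells dropped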;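 note: wells of about 15 µL received 100 nL stock; the first replicate is given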
Target sequence (P08753 whole entry, looked up): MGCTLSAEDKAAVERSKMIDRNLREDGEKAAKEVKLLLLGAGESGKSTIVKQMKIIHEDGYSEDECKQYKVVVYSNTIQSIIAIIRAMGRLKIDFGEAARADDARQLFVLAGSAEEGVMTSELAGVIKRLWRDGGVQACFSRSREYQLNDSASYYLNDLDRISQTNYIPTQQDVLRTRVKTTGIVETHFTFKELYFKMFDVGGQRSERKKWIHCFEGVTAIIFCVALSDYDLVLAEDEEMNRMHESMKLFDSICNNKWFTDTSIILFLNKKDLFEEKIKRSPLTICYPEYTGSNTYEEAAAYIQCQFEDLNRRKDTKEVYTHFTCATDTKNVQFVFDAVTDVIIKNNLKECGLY
HCMV NEC inh: inhibitors of HCMV UL50-UL53 interaction, biochemical, HTRF; HCMV UL50-UL53 nuclear egress complex (human cytomegalovirus); normalized percent inhibition; 0.15% of 190,000 active; inhibition, % (test concentration not listed);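 active = both replicates at 50% or more, plus weaker picks with an unusually low signal ratio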;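 note: stock transfer was 100 nL into about 20 µL; 0% = negative control wells and 100% = wells with untagged competitor protein; inactives centre near -12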
Sa growth 42C second temp: second read-out of Sa growth 42C, no call of its own (marks repeat the call); relative growth, %; measured here: growth at 30 °C;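 optical density after 20 h as mean of two plates; 100% = untreated growth and lower means inhibition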
Starred values were filed as active, the others as inactive; / = not tested or not shown. Rows were taken by chance, and some 0.83% of all compounds hit somewhere here.

SMILES | Sa growth 42C | Sa growth 42C second temp | GIV Gai3 FP | HCMV NEC inh
CCOc1cc(C2C3=C(CCCC3=O)OC3=C2C(=O)CCC3)ccc1O | / | / | 104 | 1
COc1cccc(NC(=O)c2ccc(C)cc2)c1 | 97 | 90 | 100 | -12
Cc1c(C(=O)Nc2cccc(F)c2)nnn1-c1ccc2noc(-c3ccccc3)c2c1 | / | / | 96 | -32
COc1cc(OC)c(NC(=O)Cn2cnc3sc(C)c(S(=O)(=O)N4CCN(C)CC4)c3c2=O)cc1Cl | 94 | 103 | 105 | 18
CN(C)c1nc2c([nH]1)c(=O)[nH]c(=O)n2C | 114 | 88 | / | 4
COc1cc(Cl)c(C)cc1NC(=O)COC(=O)CCC1CCCC1 | 92 | 86 | / | -26
COc1ccc2c(c1)c1nc(SCC(=O)Nc3cccc(C)c3)n(Cc3ccccc3)c(=O)c1n2C | / | / | 105 | -21
CC(=O)N1CCCC1c1nc2ccccc2n1Cc1c(F)cccc1Cl (stereo not given) | 115 | 81 | 104 | -25
CCc1ccc(OCC(=O)N(Cc2ccco2)Cc2ccccc2Cl)cc1 | 81 | 78 | 106 | -3
N#C/C(=C\c1cc(Br)cs1)c1cccs1 | 79 | 94 | / | -2
CC1=NN(c2ccccc2)C(=O)C1/C=C1\SC(=S)N(CC2CCCO2)C1=O (stereo not given) | 129 | 85 | / | -3
Cc1cccc(NC(=O)C(=O)NCCCN2CCOCC2)c1 | 107 | 104 | 111 | 4
COc1cccc(CC(=O)Nc2ccc3nc(NC(=O)c4ccccc4)sc3c2)c1 | / | / | 99 | -17
COc1ccccc1CN1CCC(CNC(=O)c2cnn(-c3ccc(Cl)cc3)c2C2CCN(C(=O)OC(C)(C)C)CC2)CC1 | 129 | 95 | 113 | /
CCC(=O)C1=C(c2ccc(OC)c(OC)c2)N(C(=O)CC)n2c(nnc2-c2ccc(C)cc2)S1 | 114 | 89 | 94 | /
C=CCN(Cc1nc(-c2ccc(C)cc2)no1)C(=O)C(C)(C)C | 93 | 80 | 105 | -14
Cc1csc(SCC(=O)Nc2cc(C(C)(C)C)nn2-c2ccccc2)n1 | 100 | 101 | / | -36
CC(=O)c1cccc(NC(=O)c2cc(C)nc3c2c(C)nn3-c2cccc(Cl)c2C)c1 | 88 | 82 | 104 | /
CC(=O)Oc1ccc2c(c1)oc(=O)c1c3cc(OC(C)=O)c(OC(C)=O)cc3oc21 | 96 | 68 | 105 | -27
Cc1cc2nc(COc3cc(Cl)ccc3NC(=O)C3CC3)cc(=O)n2o1 | / | / | 99 | 7
Cc1ccc2nc(CSCc3nc4ccc(Cl)cc4n3CCO)cc(=O)n2c1 | 109 | 107 | / | -35
Cn1c(=O)n(Cc2ccccc2)c(=O)c2c1nc1n2CCS1 | / | / | 106 | -10
Nc1ccc(Sc2ccc(N)cc2C(=O)O)c(C(=O)O)c1 | 86 | 85 | 102 | -37
COc1ccc(-c2nnc(SC/C(O)=C(\C#N)c3nc4ccccc4s3)n2CC2CCCO2)cc1 (stereo not given) | 105 | 92 | / | -19
CCc1c(C)sc(NC(=O)CCCC(=O)O)c1C(N)=O | 91 | 80 | / | -15

Arranged by formula weight (smallest number first): 3 of the compounds above.
SMILES | Sa growth 42C | Sa growth 42C second temp | GIV Gai3 FP | HCMV NEC inh
COc1cccc(NC(=O)c2ccc(C)cc2)c1 | 97 | 90 | 100 | -12
Cc1csc(SCC(=O)Nc2cc(C(C)(C)C)nn2-c2ccccc2)n1 | 100 | 101 | / | -36
CC(=O)c1cccc(NC(=O)c2cc(C)nc3c2c(C)nn3-c2cccc(Cl)c2C)c1 | 88 | 82 | 104 | /

Whole records, quoted from the list. Screens in order: Sa growth 42C | Sa growth 42C second temp | GIV Gai3 FP | HCMV NEC inh
Cn1c(=O)n(Cc2ccccc2)c(=O)c2c1nc1n2CCS1 across the screens: / | / | 106 | -10
CC(=O)c1cccc(NC(=O)c2cc(C)nc3c2c(C)nn3-c2cccc(Cl)c2C)c1 across the screens: 88 | 82 | 104 | /
COc1cc(Cl)c(C)cc1NC(=O)COC(=O)CCC1CCCC1 across the screens: 92 | 86 | / | -26

Further results follow:
SMILES | Sa growth 42C | Sa growth 42C second temp | GIV Gai3 FP | HCMV NEC inh
Cc1ccc(-c2nc3n(CC(=O)N4CCCC4)c4c(c(=O)n3n2)CCC4)cc1 | / | / | 107 | -19
Cc1ccc(SC(C)C(=O)NC2CCCCC2)cc1 (stereo not given) | 100 | 94 | / | 1
CN(C)NC1=CC(=[N+]2CCCCC2)CC(C)(C)C1 | 69 | 94 | / | -1
CCc1ccc(Nc2nnc(SCC(=O)Nc3cccc4nsnc34)s2)cc1 | 113 | 84 | / | -18
Cc1ccc(C(=O)NCCn2nc(C)cc2C)cc1 | 102 | 76 | 100 | /
CCCCNc1nnc(SCc2nc3ccsc3c(=O)[nH]2)s1 | 101 | 94 | / | -20
COc1ccc(N2CCCn3c2nc2c3c(=O)n(C)c(=O)n2C)cc1 | / | / | 99 | -30
CN1CCN(/N=C/c2ccc(N(C)c3ccccc3)cc2)CC1 | 89 | 93 | / | -26
CCC(NS(=O)(=O)c1ccc(C)cc1)C(=O)NCc1ccccc1 (stereo not given) | 85 | 94 | / | -12
NC(=S)CCn1ncc2c(N)ncnc21 | 92 | 89 | / | -20
O=C(NCCc1ccccc1)C1CCN(C(=O)C(C(=O)c2ccccc2)n2ccccc2=O)CC1 (stereo not given) | 99 | 94 | / | 8
Cc1ccc(NC(=O)CC2SC(=O)N(CN3CCCCC3)C2=O)cc1 (stereo not given) | 76 | 66 | 102 | -38
Cc1[nH]c2ccc(-c3nnc(SCC(=O)N4c5ccccc5CCc5ccccc54)o3)cc2c1C | 116 | 114 | 105 | -12
CCOc1ccccc1N(C)S(=O)(=O)c1c(/C=C/N(C)C)noc1C | 110 | 97 | 101 | 19
CCC(C)Cn1c(C(C)C)nc2ccccc21 (stereo not given) | 107 | 90 | 104 | -4
O=C(CN1CC(=O)Oc2ccccc21)OCC(=O)c1ccc(F)cc1 | 87 | 93 | 103 | -18
COc1ccc(-c2nc3ccccc3c(=O)[nH]2)cc1OC | 85 | 87 | 104 | -25
O=C(O)CCCn1cc(NC(=O)Cc2ccccc2)cn1 | 100 | 94 | 102 | -20
CCN(CC)c1nc(-c2ccc(F)cc2)cc(C(F)(F)F)n1 | 89 | 86 | 110 | /
Cc1ccc(CN(C(=O)COc2ccc(C(C)C)cc2)C2CCS(=O)(=O)C2)o1 (stereo not given) | 87 | 86 | 101 | 10
CC(O)CC#CCN1CCCC(c2cccnc2)C1 (stereo not given) | 107 | 93 | 101 | -5
OC(Cc1ccccc1)(c1ccccc1)c1ccccc1NC(=S)NC1CC2C=CC1C2 (stereo not given) | 74 | 90 | 98 | -24
N#CCOC(=O)c1c2c(nc3ccccc13)CCCC2 | 76 | 87 | / | -24
CN(C)C1(CNC(=O)COc2ccccc2Cl)CCCCC1 | / | / | 101 | -18
COc1ccc(NC(=O)CC2C(=O)N(c3ccccc3)C(=O)N2C(C)C)cc1 (stereo not given) | 79 | 86 | 101 | /

A different layout for part of the listing above:
The line under a structure holds: Sa growth 42C	Sa growth 42C second temp	GIV Gai3 FP	HCMV NEC inh
Cc1ccc(NC(=O)CC2SC(=O)N(CN3CCCCC3)C2=O)cc1 (stereo not given)
  76	66	102	-38
Cc1[nH]c2ccc(-c3nnc(SCC(=O)N4c5ccccc5CCc5ccccc54)o3)cc2c1C
  116	114	105	-12
CCOc1ccccc1N(C)S(=O)(=O)c1c(/C=C/N(C)C)noc1C
  110	97	101	19
CCC(C)Cn1c(C(C)C)nc2ccccc21 (stereo not given)
  107	90	104	-4

New compounds follow
SMILES | Sa growth 42C | Sa growth 42C second temp | GIV Gai3 FP | HCMV NEC inh
COc1cccc(C(=O)Nc2ccc3oc(-c4cccc5c(Br)cccc45)nc3c2)c1 | 96 | 95 | 111 | -14
CCn1nnc2cc(C(=O)N(C3=NC(C)CS3)c3ccc(Cl)cc3)ccc21 (stereo not given) | 95 | 99 | / | -2
Cc1ccc(C)c(CNC(=O)CN2C(=O)CSc3ccc(S(=O)(=O)N(C)C)cc32)c1 | 94 | 86 | 102 | /
CN(C(=O)Cn1nnc2ccccc2c1=O)C1CCCCC1 | 112 | 93 | 109 | -27
CCOC(=O)Cn1nnnc1C(CC)N(Cc1cccnc1)Cc1cc2cc(C)ccc2[nH]c1=O (stereo not given) | 112 | 85 | 100 | -29
CN(Cc1cc(=O)[nH]c2ccccc12)C(=O)COc1ccccc1 | / | / | 102 | 6
Fc1ccc(CSc2nnc([C@@H]3CCCN3)o2)cc1 | / | / | 101 | 1
COc1ccc2nc3sc(C(=O)NCCc4ccc(Cl)cc4)cc3cc2c1 | 101 | 89 | 105 | -14
CCNC(=O)C1=C(C)C(=O)OC12CCN(S(=O)(=O)CC)CC2 | 101 | 78 | 100 | -28
CC(=O)N(Cc1ccc(F)cc1)Cc1nc2ccccc2c(=O)[nH]1 | 113 | 90 | 104 | 15
COc1ccc(C2NC(=O)NC(C)=C2C(=O)OCCSc2ccccc2)c(OC)c1 (stereo not given) | / | / | 102 | -18
CC(Sc1nc2ccccc2n1C)C(=O)N(C)c1ccccc1 (stereo not given) | 120 | 87 | / | 2
CCC(Sc1nnc2sc3ccccc3n12)C(=O)O (stereo not given) | 64 | 81 | 96 | /
CCOC(=O)c1ccc(NC(=O)C2CC(=O)N(Cc3ccccc3)C(=Nc3ccccc3)S2)cc1 (stereo not given) | / | / | 104 | -3
O=C1CSc2ccc(S(=O)(=O)N3CCC(C(=O)N4CCCCC4)CC3)cc2N1 | / | / | 100 | -3
CC(Sc1nnnn1C)c1ccccc1Cl (stereo not given) | 89 | 95 | / | -16
CS(=O)(=O)N1N=C(c2cccs2)CC1c1ccccc1F (stereo not given) | 105 | 81 | 103 | /
NC(=O)c1ccccc1NC(=O)CN1c2ccccc2S(=O)(=O)c2ccccc21 | 114 | 89 | 98 | /
Cc1nc(SCCCSc2n[nH]c(C)n2)n[nH]1 | 102 | 96 | 104 | 4
CCOC(=O)c1cc(-c2ccc(C#N)cc2)nn1-c1ccc(S(N)(=O)=O)cc1 | 86 | 90 | / | -10
O=C(CCNc1ccc(Oc2ccccc2)cc1)c1ccco1 | 107 | 91 | 110 | -10
CC1CCCCC12NC(=O)N(CN1CCN(S(=O)(=O)c3ccc4c(c3)OCCCO4)CC1)C2=O (stereo not given) | 70 | 90 | / | -39
CCc1ccc(CNC(=O)c2c(C)oc3ncnc(N4CCOCC4)c23)cc1 | 97 | 102 | 103 | /
O=C1CC(c2nc3ccccc3n2CC(O)COc2ccccc2)CN1Cc1ccccc1 (stereo not given) | / | / | 111 | 6
CCOc1ncccc1C(=O)N1CCSC1=NCc1ccccc1 | 98 | 97 | / | -15
SMILES | Sa growth 42C | Sa growth 42C second temp | GIV Gai3 FP | HCMV NEC inh
Cc1csc(NC(=O)CN(C)S(=O)(=O)c2cccc3cccnc23)n1 | 91 | 84 | 105 | -6
CCSc1nc(-c2ccc(Cl)cc2)c(C#N)c(=O)n1CC | 79 | 77 | / | -3
O=c1[nH]ncn2c1c(-n1cccc1)c1c3c(sc12)CCCC3 | 98 | 87 | 96 | -6
C=CCN(C(=O)C1CCCC1)c1nc2c(s1)CCCC2 | 92 | 80 | / | -20
CC(C)OC(=O)CCCN1C(=O)c2ccc(N)cc2C1=O | 100 | 72 | 92 | -84
CCOc1ccc(OCC)c(C2C(Cc3ccccc3)N3c4ccccc4C=CC3C2(C#N)C#N)c1 (stereo not given) | 82 | 70 | / | -55
CCCC1=NN(c2nc3ccccc3s2)C(=O)/C1=C/N(C)C | 113 | 82 | 100 | /
O=C(CC1CCCC1)Nc1ccc(S(=O)(=O)C(F)F)cc1 | 100 | 64 | / | 4
CCOC(=O)c1[nH]c(C)c(S(=O)(=O)Nc2ccc(Cl)cn2)c1C | / | / | 101 | -21
O=C(CO/N=C/c1cccs1)N1CCN(c2ccccc2)CC1 | 96 | 95 | / | -50
COc1ccc(Nc2nc(N3CCN(CCO)CC3)nc3c2cnn3C)cc1Cl | 75 | 71 | 110 | /

Retrieved by structure from above:
SMILES | Sa growth 42C | Sa growth 42C second temp | GIV Gai3 FP | HCMV NEC inh
CCSc1nc(-c2ccc(Cl)cc2)c(C#N)c(=O)n1CC | 79 | 77 | / | -3
O=C(CC1CCCC1)Nc1ccc(S(=O)(=O)C(F)F)cc1 | 100 | 64 | / | 4
Cc1csc(NC(=O)CN(C)S(=O)(=O)c2cccc3cccnc23)n1 | 91 | 84 | 105 | -6
